# fixLJ activator – activators of Burkholderia fixLJ two-component system, primary screen, B. multivorans, GFP reporter | z-score (test concentration not listed) | 0.3% of 29,000 active | B. multivorans fixK-promoter GFP reporter, 18 h; active compounds read high;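 active = replicate mean overnight rise in green fluorescent reporter signal, 3 or more SD over negative controls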;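 also: score is relative to vehicle wells of the plate; 300 nL library stock went into each well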
# * hit, by the source's call. The list is partial (hit frequency here may not be typical).
SMILES,fixLJ activator
Cc1ccc(OCCn2c(CCNC(=O)C3CCCCC3)nc3ccccc32)cc1,-2.8
CCOC(=O)C(C)Sc1nc(-c2ccccc2Cl)cc(-c2ccccc2)c1C#N (stereo not drawn),-1.4
Cc1cnc(CNC(=O)N(CC(O)c2ccccc2)C2CCCCC2)[nH]1 (stereo not drawn),-0.08
Cc1ccccc1-n1nc(CO)c(C(=O)NCc2cccs2)n1,-0.86
Cn1cc(C(=O)NCc2n[nH]c3c2CCCCC3)c2ccccc21,-0.45
COCCn1cnnc1CN(C)C(=O)c1ccc2nc(C)cn2c1,-0.93
CCOc1ccc2ncc3c(-c4cccc(OC)c4)nn(-c4ccccc4)c3c2c1,3.3*
CCOc1ccc(S(=O)(=O)N(CC(=O)Nc2ccc3c(c2)OCO3)c2ccc(C)cc2)cc1,0.85
Cc1cccc(N(CC(=O)NCCSCc2ccc(Cl)cc2)S(C)(=O)=O)c1C,-1
COC(=O)c1cc(NC(=O)C2CCCN(S(=O)(=O)c3c(C)n[nH]c3C)C2)cc(C(=O)OC)c1 (stereo not drawn),1.9
Cc1oc(-c2ccccc2F)nc1CN1CCC(C(=O)NCCc2ccccc2)CC1,-1.5
COc1ccc2[nH]cc(CCN=C(NC(=O)c3ccccc3C)Nc3nc(C)cc(C)n3)c2c1,0.4
c1coc(-c2nc3ccccn3c2Nc2ccc3c(c2)OCCO3)c1,-1.1
O=C(Nc1sc2c(c1C(=O)N1CCCCC1)CCCC2)c1ccccc1Cl,-1.5
Cc1ccc(-n2nc(C(=O)N(C)Cc3ccccc3)c3c4ccccc4n(C)c3c2=O)cc1,-0.34
CCCN1C(=O)C(NC(=O)c2ccccc2OC)(C(F)(F)F)C(C(=O)OC)=C1C (stereo not drawn),0.41
COc1ccc(-n2c(=O)c3c4c(sc3n(Cc3ccc(F)cc3)c2=O)CCCC4)c(OC)c1,1.8
Cc1ccc(C)c(NC(=O)CC2NCCNC2=O)c1 (stereo not drawn),-0.19
O=C(c1ccc(=O)[nH]c1)N1CCC(Oc2ccccc2Cl)CC1,-0.22
CC(C)(C)C1CCc2oc3ccc(NS(=O)(=O)c4ccc(C(=O)O)cc4)cc3c2C1 (stereo not drawn),-0.94
Cc1noc(C)c1CSc1nnc(CC2CCNCC2)n1C,-0.55
O=C(CSc1nnc2scc(-c3ccc(Cl)cc3)n12)Nc1ccccc1F,-3.8
CCOc1ccc(NC(=O)CSc2nc3c(oc4ccccc43)c(=O)n2-c2cc(C)cc(C)c2)cc1,-1.1
CCN(CC)S(=O)(=O)c1ccc(C(=O)N=c2sc3cccc(OC)c3n2C)cc1,-0.36
CCSc1nc2ccccc2c(OCc2cc(C(=O)OC)ccc2OC)c1C(=O)OC,0.81

# (cont.)
SMILES,fixLJ activator
COc1cccc(C(=O)N2CCC3(CC2)C(C(=O)O)CC(=O)N3C)c1 (stereo not drawn),-0.86
COC(=O)CC1Oc2ccc(F)cc2-n2cc(-c3ccc(Cl)cc3)nc21 (stereo not drawn),-0.31
C=CCCN1CCC(O)[C@]2(CCCN(C(=O)COC(C)C)C2)C1 (stereo partly drawn),-2.7
O=C(c1ccc(C2CCCO2)s1)N1CCc2nocc2C1 (stereo not drawn),-2.7
Cc1ccccc1C1(NC(=O)c2cc(Cl)ccc2OCCN)CC1,-0.54
CCOc1ccc(CCNC(=O)c2cn(CC)c3ccc(S(=O)(=O)N4CCc5ccccc5C4)cc3c2=O)cc1OCC,-0.31
COc1ccccc1NC(=O)c1ccc(COc2ccc(C)c(C)c2)o1,-0.01
CN(C)c1ccc(CC(=O)NC(c2cnn(C)c2)C2CC(O)C2)cc1 (stereo not drawn),-1
CC(C)CC(=O)NC(c1cnc2ccccc2c1)C1CC(O)C1 (stereo not drawn),1.8
C#CC(C)(CC)NC(=O)Cn1nnc(-c2ccc(OCc3ccccc3C)cc2)n1 (stereo not drawn),1.3
COc1ccc(S(=O)(=O)NCCCSc2nnc(C)s2)cc1,-0.71
CCCN(C(=O)c1cc(CN2CCOCC2)on1)C1CCCC1,-1.7
COc1cccc2c1OCC(NC(=O)c1cc(-n3cccn3)ccc1Cl)C2 (stereo not drawn),-1.1
COc1ccc(C)cc1NC(=O)C1CCN(S(=O)(=O)c2cccc3nonc23)CC1,-0.84
O=C(CSCCN1CCCC1)N1CCn2nc(CO)cc2C1,-1.1
CCC(=O)N1CCc2cc(S(=O)(=O)NC(C(=O)NCCc3ccc(C)cc3)C(C)C)ccc21 (stereo not drawn),-0.62
Cc1ccc(-n2c3nc(=O)[nH]c(=O)c-3cc3c(C)nn(-c4ccccc4)c32)c(C)c1,-1.3
Cc1cc(C(C)(C)C)cc(S(=O)(=O)NCc2cn3c(n2)SCC3)c1C,-0.67
COc1cccc2c1C1(CCN(C(=O)CN3CCOC3=O)CC1)OCC2,-0.28
Cc1ccc(C)c(CN2C(=O)c3ccccc3S(=O)(=O)c3ccc(C(=O)N4CCN(c5ccccn5)CC4)cc32)c1,-1.1
Cc1cccc(NC(=O)C(Cc2ccccc2)NS(=O)(=O)c2ccc3c(c2)c(=O)n(C)c(=O)n3C)c1 (stereo not drawn),-0.46
O=C(Nc1c(O)c2ccccc2oc1=O)c1ccccc1Cl,-1.1
O=C(Oc1ccc(F)cc1)c1nc(SCc2ccccc2F)ncc1Cl,0.26
CN(Cc1noc(C2CCC2)n1)C(=O)c1[nH]nc(N)c1Cl,-0.64
COc1cccc(C2CC(=O)Nc3c2c(=O)n(C)c2ncnn32)c1OC (stereo not drawn),1.4

# Later entries:
SMILES,fixLJ activator
O=C(c1cc(=O)c2cc(Cl)ccc2o1)N(Cc1ccccc1)C1CCS(=O)(=O)C1 (stereo not drawn),-1.8
CCc1cccc(NC(=O)Cn2c(=O)n(CCC(=O)NCC3CCCO3)c(=O)c3cc(OC)c(OC)cc32)c1 (stereo not drawn),1.1
O=C(NC1CCCCC1)c1ccc(CSc2nc3ccncc3n2Cc2ccccc2F)cc1,-3.6
COc1ccc(CCNC(=O)c2ccc(CNS(=O)(=O)c3ccccc3)cc2)cc1OC,0.3
CCn1cc(C(=O)N2CCN(c3ccccc3)CC2)c(=O)c2cc(S(=O)(=O)N3CCOCC3)ccc21,0.63
COc1ccc(NC(=O)C2CCCN(S(=O)(=O)c3c(C)[nH]c(=O)[nH]c3=O)C2)cc1 (stereo not drawn),-0.95
COc1ccc(-c2c(C#N)c(SCC(=O)Nc3ccccc3C)nc(C)c2C(=O)Nc2ccccc2)cc1OC,-0.31
CC(C)Sc1nc2sc3c(c2c(=O)n1-c1ccccc1)CCCC3,0.06
Cc1ccc(C)c(CN2C(=O)c3ccccc3S(=O)(=O)c3ccc(C(=O)N4CCc5ccccc54)cc32)c1,0.46
COc1ccc(-n2cc(-c3ccc4c(c3)OCO4)n(CC(=O)Nc3cc(Cl)ccc3C)c2=O)cc1,0.01
Cc1ccc2c(=O)cc(C(=O)NCc3ccccc3)oc2c1,-1.7
CN(C)CC/C=C1\c2ccccc2Sc2ccc(Cl)cc21,0.69
Cc1noc(C)c1CN1CCc2c(C(=O)NC(C)C)csc2C1,0.33
CCN(CC)CC(O)COc1cc(CN2CCC(C#N)CC2)ccc1OC (stereo not drawn),0.1
Cc1cc(C)c2c(=O)c3c(oc2c1)C(=O)N(Cc1ccco1)C3c1ccc(F)cc1 (stereo not drawn),-1.2
CCOC(=O)N1CCC(c2nnc(Cn3ccnc3C)n2C)CC1,0.89
COc1cc(C2Nc3c(C)cc(C)cc3-c3cc(C)nn32)cc(OC)c1O (stereo not drawn),0.44
CC(C)CCNC(=O)c1cn(C)c2ccc(S(=O)(=O)N3CCCC3)cc2c1=O,-1.2
COc1ncc(-c2c(C#N)c(N)nc3c2CN(C(=O)C2CC2)CC3)cn1,0.36
COC(=O)c1c(NC(=O)COc2cc(C)ccc2C(C)C)sc2c1CCC(C)C2 (stereo not drawn),-1.4
COc1ccc(Nc2cc(C(=O)NC3CCCC3)c3ccccc3n2)cc1,-1.2
CCc1nn(C(CC)C(=O)NCc2ccc(F)cc2)c(=O)c2cc3occc3n12 (stereo not drawn),-1.8
Cc1ccc(-c2noc(CNS(=O)(=O)c3ccc(F)cc3)n2)cc1,-0.14
CCc1ccccc1N(CC)C(=O)C(=O)Nc1ccc2nc3n(c(=O)c2c1)CCCCC3,-3.2
O=C(c1ccc(CSc2nc3ccncc3n2Cc2ccccc2)cc1)N1CCCCCC1,-1.9

# More structures follow:
SMILES,fixLJ activator
O=C(Cn1ccc2ccccc2c1=O)NCCC(=O)Nc1ccc(F)cc1F,0.19
CC(C)c1noc(CN(C)CCC(=O)N2CCC(C(=O)O)CC2)n1,-2.2
Cc1ccc(Cl)cc1NC(=O)Cn1c(=O)n(CCC(=O)NCc2ccc3c(c2)OCO3)c(=O)c2sccc21,-1.3
CCc1ccccc1NC(=O)c1cc2nc(-c3ccc(OC)c(OC)c3)cc(C(F)(F)F)n2n1,-1
COCC1C(NC(=O)c2cccc3ncccc23)C2CCOC21 (stereo not drawn),0.01
CC1=C(C(=O)N2CCCCC2)C(c2cccc(Cl)c2)n2c(nc3ccccc32)N1 (stereo not drawn),-0.7
COc1cc(C)c(Cl)cc1S(=O)(=O)NCCc1c(C)[nH]c2ccccc12,-2.4
Cc1ccc(N(CC(=O)N2CCN(c3ccc(Cl)cc3)CC2)S(=O)(=O)c2c(C)noc2C)cc1,1
Cc1ccc(Nc2c(C(C)C)c(C)c(C#N)c3nc4ccccc4n23)cc1,0.3
CC(C)(N)C(=O)N1CCc2onc(C(c3ccccc3)c3ccccc3)c2C1,-4.7
CCOC(=O)C1CCCN(C(=O)Cn2nc(CC)n3c(cc4occc43)c2=O)C1 (stereo not drawn),0.12
CC(=O)OCC(=O)[C@@]1(O)CCC2C3CCC4=CC(=O)CC[C@]4(C)C3[C@@H](O)C[C@@]21C (stereo partly drawn),-0.31
Cc1ccc(-c2c(C(=O)N3CCN(c4ccc(F)cc4)CC3)oc(=O)c3ccccc23)cc1,0.42
CCOc1ccc(NC(=O)c2c(NC(=O)Cc3ccccc3)sc3c2CCCC3)cc1,0.04
Cc1ccc(NC(=O)Cn2cc(S(=O)(=O)c3ccc(C)cc3)c(=O)c3cc4c(cc32)OCO4)cc1,-1.2
CCN(CCCNC(=O)CSc1cc(=O)n(C)c2cc(Cl)ccc12)c1ccccc1,-0.17
CCOc1ccc2nc(N3CCCC(C(=O)Nc4ccc(OC)c(Cl)c4)C3)sc2c1 (stereo not drawn),-1.9
O=C(c1cc(C2CC2)[nH]n1)N1CC(O)C(Cc2ccnc3ccccc23)C1 (stereo not drawn),-1.6
CCN1CCNC(=O)C1CC(=O)Nc1ccc(-c2cn3ccc(C)cc3n2)cc1 (stereo not drawn),-1.6
COc1ccccc1NC(=O)CSc1nc2c(oc3ccccc32)c(=O)n1Cc1ccco1,-0.5
Cc1cc(N2CCCCC2)nc2ccc(NC(=O)/C=C/c3ccccc3Cl)cc12,1.3
Cc1nc(CNC(=O)Cn2ncc3ccccc32)nc2c1CCCC2,-0.19
CN(C)CC/C=C1/c2ccccc2COc2ccccc21,-0.98
CCOC(=O)c1cnc2c(ccc3ccccc32)c1Nc1ccc(OC)cc1OC,0.08
Cn1ccnc1-c1c(-c2ccccc2)ncn1CCC(=O)NC1CCCCC1,-0.34

# (further entries)
SMILES,fixLJ activator
O=C(Cc1ccc(-c2ccccc2)cc1)NC1COCC1N1CCOCC1 (stereo not drawn),-0.91
CCc1ccc(-n2nc3ccc(NC(=O)c4ccc(C#N)cc4F)cc3n2)cc1,-1.2
COc1ccc(Cn2c(=O)[nH]c3cc(C(=O)N4CCN(c5cccc(OC)c5)CC4)ccc3c2=O)cc1,-0.21
Cc1ccc(S(=O)(=O)c2cn(CC(=O)Nc3ccc(F)cc3)c3cc4c(cc3c2=O)OCO4)cc1,-3.5
COc1ccc(-c2cc(C(F)(F)F)n3nc(-c4ccc(Cl)cc4)cc3n2)cc1OC,-0.77
Cc1ccccc1CN1C(=O)c2ccccc2S(=O)c2ccc(C(=O)NCc3ccco3)cc21 (stereo not drawn),-0.49
Cc1ccc(C)c(Cn2c(C(C)NC(=O)c3ccccc3)nc3ccccc32)c1 (stereo not drawn),-0.49
CCc1nnc(CNC(=O)CC2C(=O)NCCN2C(C)C)s1 (stereo not drawn),-0.65
O=C(c1ccc(Cl)cc1)n1nc(-c2ccccc2)nc1NCc1ccco1,-0.34
CCCSc1ncc(Cl)c(C(=O)Nc2c(C(=O)c3ccc(C)cc3)oc3ccccc23)n1,-0.74
CC(C)NC(=O)c1cc(N2CCCC(Cc3nc4ccccc4[nH]3)C2)ccn1 (stereo not drawn),-0.32

# Filtered by structure, the compounds so far with an NH in an aromatic ring
SMILES,fixLJ activator
Cc1cnc(CNC(=O)N(CC(O)c2ccccc2)C2CCCCC2)[nH]1 (stereo not drawn),-0.08
Cn1cc(C(=O)NCc2n[nH]c3c2CCCCC3)c2ccccc21,-0.45
COC(=O)c1cc(NC(=O)C2CCCN(S(=O)(=O)c3c(C)n[nH]c3C)C2)cc(C(=O)OC)c1 (stereo not drawn),1.9
COc1ccc2[nH]cc(CCN=C(NC(=O)c3ccccc3C)Nc3nc(C)cc(C)n3)c2c1,0.4
O=C(c1ccc(=O)[nH]c1)N1CCC(Oc2ccccc2Cl)CC1,-0.22
Cc1ccc(-n2c3nc(=O)[nH]c(=O)c-3cc3c(C)nn(-c4ccccc4)c32)c(C)c1,-1.3
CN(Cc1noc(C2CCC2)n1)C(=O)c1[nH]nc(N)c1Cl,-0.64
COc1ccc(NC(=O)C2CCCN(S(=O)(=O)c3c(C)[nH]c(=O)[nH]c3=O)C2)cc1 (stereo not drawn),-0.95
COc1cc(C)c(Cl)cc1S(=O)(=O)NCCc1c(C)[nH]c2ccccc12,-2.4
O=C(c1cc(C2CC2)[nH]n1)N1CC(O)C(Cc2ccnc3ccccc23)C1 (stereo not drawn),-1.6
COc1ccc(Cn2c(=O)[nH]c3cc(C(=O)N4CCN(c5cccc(OC)c5)CC4)ccc3c2=O)cc1,-0.21
CC(C)NC(=O)c1cc(N2CCCC(Cc3nc4ccccc4[nH]3)C2)ccn1 (stereo not drawn),-0.32

# High-throughput results: PubChem BioAssay, ICCB-Longwood Screening Facility, Harvard Medical School
